D2 PAM – Beta-Arrestin HTS for Positive Allosteric Modulators of the Human D2 Dopamine Receptor: Potentiators. DiscoveRx D2 beta-arrestin cells, luminescence, 90 min; 100% = 57 uM dopamine signal. D(2) dopamine receptor (Homo sapiens), P14416. potentiation, % (no concentration beside the values). 360,000 tested, 0.23% active; active = potentiation of 50% or more; inconclusive = 30% to 50%; inactive = 30% or less;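 also: compound concentration not given in the record; tested on top of an EC20 dose of dopamine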
Target sequence (P14416 whole entry, looked up): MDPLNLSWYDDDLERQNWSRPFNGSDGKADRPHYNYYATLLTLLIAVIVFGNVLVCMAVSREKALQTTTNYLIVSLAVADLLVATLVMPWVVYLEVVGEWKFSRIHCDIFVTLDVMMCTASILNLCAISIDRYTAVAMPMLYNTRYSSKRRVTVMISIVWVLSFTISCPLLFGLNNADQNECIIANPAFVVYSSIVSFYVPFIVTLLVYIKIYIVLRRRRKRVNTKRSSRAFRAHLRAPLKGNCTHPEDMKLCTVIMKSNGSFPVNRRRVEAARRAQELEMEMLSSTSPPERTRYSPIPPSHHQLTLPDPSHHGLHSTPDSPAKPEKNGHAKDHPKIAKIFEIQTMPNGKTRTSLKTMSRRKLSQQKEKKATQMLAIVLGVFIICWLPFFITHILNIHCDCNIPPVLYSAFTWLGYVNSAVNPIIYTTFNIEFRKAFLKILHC
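D2 cells co-treated with compound plus 50 nM dopamine (EC20) for 90 min at 37 deg C to detect potentiation. Beta-arrestin recruitment was read as enzyme-fragment luminescence after 1 h at ambient temperature. Full response was set by 57 uM dopamine.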
PINK1 modulator – A Quantitative High throughput Screen to Identify Chemical Modulators of PINK1 Expression; PINK1 immunofluorescence, high-content cytometry, 24 h; Potency, µM (series often up to 76.6 µM), for inactives: at the top dose activation (PINK1 increase), most hits filed as activators; 410,000 tested, 0.2% active; AID 624263, 2012; active = well fitted activation curve with a large enough effect; inconclusive = small, poorly fitted or top-dose-only effect; inactive = flat fitted curve, though single readings scatter; cell line not stated here;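 also: potency is read from the fitted curve at half-maximal effect; % of control where 0% means no effect; nearly all actives have a fitted effect of over 65% in size; a mitochondrial uncoupler was the plate control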
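Readout is PINK1 immunofluorescence, quantified alongside mitochondrial, cell and nuclear markers by laser-scanning microplate cytometry. Cells from a stable line were exposed to compound titrations (5 concentrations) for 24 hours, with CCCP controls.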
TRPML1 ag – qHTS for Agonists of the Human Mucolipin Transient Receptor Potential 1 (TRPML1) | TRPML1-expressing cells, Ca2+ dye fluorescence, FDSS; host cell line not named in the record; reference of the full effect not given here | activation, % (concentration not given with the values) | 410,000 tested, 0.12% active | AID 624414, 2012 | Mucolipin-1 (Homo sapiens), Q9GZU1; in the data active = activation above about 50%; inconclusive = about 30% to 50%; inactive = below about 30%; also: 0% is about no effect; the text of the record puts the active cut at 80%
Target sequence (Q9GZU1 whole entry, looked up): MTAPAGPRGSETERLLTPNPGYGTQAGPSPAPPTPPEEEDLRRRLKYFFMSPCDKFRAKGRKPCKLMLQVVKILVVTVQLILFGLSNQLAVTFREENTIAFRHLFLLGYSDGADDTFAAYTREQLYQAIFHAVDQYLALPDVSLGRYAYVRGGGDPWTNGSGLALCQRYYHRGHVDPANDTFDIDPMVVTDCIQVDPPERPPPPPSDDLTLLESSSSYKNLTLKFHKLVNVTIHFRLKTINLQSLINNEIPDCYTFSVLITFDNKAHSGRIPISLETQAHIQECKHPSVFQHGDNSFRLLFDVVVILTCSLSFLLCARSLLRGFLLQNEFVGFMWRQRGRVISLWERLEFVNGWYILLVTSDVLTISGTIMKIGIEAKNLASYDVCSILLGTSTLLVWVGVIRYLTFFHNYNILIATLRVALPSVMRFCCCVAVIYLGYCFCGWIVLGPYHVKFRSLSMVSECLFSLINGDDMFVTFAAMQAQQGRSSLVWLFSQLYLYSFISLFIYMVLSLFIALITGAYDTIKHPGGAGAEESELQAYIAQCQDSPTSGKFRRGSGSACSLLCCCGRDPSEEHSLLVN
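Kinetic FDSS Ca2+ read in Tet-induced TRPML1-DL cells (ABD Ca8 dye plus quencher, 45-90 min RT loading): baseline, then compound, then 110 s agonist window; EC80 agonist 54-4 at 4uM final added afterwards for a 110 s antagonist window.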
Six1-Eya2 inh – qHTS Assay for Inhibitors of the Six1/Eya2 Interaction; Homeobox protein SIX1 (Homo sapiens) + Protein phosphatase EYA2 (Homo sapiens), …; AlphaScreen GST-Six1/His-Eya2 binding, biochemical; active compounds read low; control for the full effect not named in the record; activity change, % (concentration not given with the values); 360,000 tested, 0.56% active; in the data active = activity change below about -65%; inconclusive = about -30% to -65%; inactive = above about -30%; also: % is scaled to controls: 0 for no effect and ±100 for the full control effect
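Homogeneous AlphaScreen proximity assay pairing GST-Six1 with His-tagged Eya2 (added as 5X mix: 250 nM and 500 nM) in 50 mM Tris pH 8.0, 300 mM NaCl, 1 mM TCEP. Glutathione donor and nickel acceptor beads; 1 h, 37 °C, dark.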
D2 ag – Beta-Arrestin HTS for Positive Allosteric Modulators of the Human D2 Dopamine Receptor: Agonists; D(2) dopamine receptor (Homo sapiens), P14416; DiscoveRx PathHunter D2 beta-arrestin, luminescence, 90 min; 100% = 57 uM dopamine signal; activation, % (test concentration not listed); 360,000 tested, 0.084% active; in the data active = activation above about 40%; inconclusive = about 15% to 40%; inactive = below about 15%; also: compound concentration not given in the record; the text of the record calls up to 30% inactive
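Agonist mode: compounds alone added to overnight-plated D2 PathHunter cells for 90 min at 37 C, with 57 uM final dopamine (EC100) defining full response. Beta-arrestin recruitment detected by chemiluminescent reagent, read after 1 h at ambient temperature.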
CtBP-E1A blk – qHTS Assay for Inhibitors of the CtBP/E1A Interaction; CtBP / adenovirus E1A interaction (AlphaScreen); AlphaScreen GST-E1A/His-CtBP binding, 1536-well; active compounds read low; control for the full effect not named in the record; 340,000 tested, 0.49% active; activity change, % (concentration not given with the values); in the data active means activity change below about -65%; inconclusive means about -30% to -65%; inactive means above about -30%; also: % is scaled to controls: 0 for no effect and ±100 for the full control effect
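GST-E1A and His-tagged CtBP (125 nM each as 5X stock) were preincubated with pin-transferred compound for 2 h at 37 °C in the dark, then glutathione donor and nickel acceptor beads were added for 1 h before AlphaScreen reading.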
* = called active by the depositor; ? = inconclusive; · = no result given; & = joins results of further samples; [ ] = remark or other dose. Hits appear at their usual frequency; overall some 1.3% were active at least once.

SMILES,D2 PAM,PINK1 modulator,TRPML1 ag,Six1-Eya2 inh,D2 ag,CtBP-E1A blk
CCCCCOc1ccc(N2C(=O)C3C4C=CC(C3C2=O)N(C)C4=O)cc1 (configuration not stated),24,-0.7%,-0.9,-1,0.1,5
COc1cccc(/C=N/NC(=O)C(=O)N2CCCC2)c1OC,-14,-1.5%,2.6,4,0.0,0
Cc1ccc2oc(C(F)(F)C(F)F)cc(=O)c2c1,-5,-2.1%,-0.6,-2,-2.9,-16
O=c1[nH]c(/C=C\c2ccc(O)c(Cl)c2)nc(O)c1[N+](=O)[O-],-4,1.4%,2.0,-2,-0.2,5
Cc1csc2ncnc(NNC(=O)c3ccc(Cl)cc3)c12,-9,1.9%,0.2,-5,-0.4,-12
O=C(Nc1ccc(Cl)cc1C(=O)N1CCCCC1)c1ccco1,-1,0.2%,-0.2,-4,-0.8,6
S=C(NCc1cccs1)NCC1CCCO1 (configuration not stated),0,1.8%,-1.1,0,-4.4,-9
Cc1ccccc1NC(=O)c1ccc([N+](=O)[O-])o1,10,0.7%,0.1,8,?,0

In the list so far, two contain a nitro group on carbon:
SMILES,D2 PAM,PINK1 modulator,TRPML1 ag,Six1-Eya2 inh,D2 ag,CtBP-E1A blk
O=c1[nH]c(/C=C\c2ccc(O)c(Cl)c2)nc(O)c1[N+](=O)[O-],-4,1.4%,2.0,-2,-0.2,5
Cc1ccccc1NC(=O)c1ccc([N+](=O)[O-])o1,10,0.7%,0.1,8,?,0

(more compounds)
SMILES,D2 PAM,PINK1 modulator,TRPML1 ag,Six1-Eya2 inh,D2 ag,CtBP-E1A blk
CC1(C)Cc2c(cnn2-c2cccc(F)c2)C(NC(=O)c2cc[n+]([O-])cc2)C1 (configuration not stated),-10,-0.7%,0.1,3,2.1,2
NNC(=O)c1ccc(-c2cccc([N+](=O)[O-])c2)o1,-8,-1.4%,-0.4,-5,5.2,-19
CCOC(=O)Cc1nnc2c(Nc3ccc(C)cc3)nc3nonc3n12,-9,6.9%,-0.7,-7,-6.2,7
CC(=O)NC12CC3CC(C1)CC(C(=O)N(C)CC(=O)Nc1ccccc1Cl)(C3)C2,-10,-1.7%,-0.1,4,-2.9,-10
COc1cc(NC(=S)NN2CCOCC2)cc(OC)c1,-3,1.3%,0.6,-8,0.0,-2
Cc1cc(=O)[nH]c(SCC(=O)NC2CCCCC2)n1,-9,-2.7%,1.8,-3,-5.0,1
CCc1ccccc1NC(=O)CSC1=C(C#N)C(c2ccc(O)c(OC)c2)C2=C(CCCC2=O)N1 (configuration not stated),3,3.2%,-1.4,-6,1.9,-6
COc1ccccc1NC(=O)COC(=O)c1ccccc1SCC(=O)N1CCCC1,-41,-0.7%,-0.2,21,-7.8,-3

Some of the entries above in a different format:
The line under a structure holds: D2 PAM, PINK1 modulator, TRPML1 ag, Six1-Eya2 inh, D2 ag, CtBP-E1A blk
> COc1cc(NC(=S)NN2CCOCC2)cc(OC)c1
 : -3, 1.3%, 0.6, -8, 0.0, -2
> Cc1cc(=O)[nH]c(SCC(=O)NC2CCCCC2)n1
 : -9, -2.7%, 1.8, -3, -5.0, 1
> CCc1ccccc1NC(=O)CSC1=C(C#N)C(c2ccc(O)c(OC)c2)C2=C(CCCC2=O)N1 (configuration not stated)
 : 3, 3.2%, -1.4, -6, 1.9, -6

Later entries
SMILES,D2 PAM,PINK1 modulator,TRPML1 ag,Six1-Eya2 inh,D2 ag,CtBP-E1A blk
C/C(=N\N=C(/N)SC1CC(=O)N(c2ccc(Br)cc2)C1=O)c1cccs1 (configuration not stated),2,-0.3%[38.3 µM],0.2,-3,0.0,-10
C[C@@H]1CN([C@@H](C)CO)C(=O)CCCn2nncc2CO[C@@H]1CN(C)S(=O)(=O)c1ccccc1F,·,2.2%,·,4,-1.5,0
Cc1cc(C)c(C)c(S(=O)(=O)N2CCN(CC(=O)NC(=O)NCc3ccccc3)CC2)c1C,-9,0.7%,0.5,-3,1.3,-8
c1ccc(-n2cnc3cc(NCc4ccncc4)ccc32)cc1,-11,-0.1%,-0.3,-9,1.5,-10
CCN(CC)CCNC(=O)c1cn(CC)c2ccc(S(=O)(=O)N3CCOCC3)cc2c1=O,-9,0.5%&2.3%,0.6&-0.7,4,-0.5,·
Cc1cc(C(=O)NNC(=O)Cc2ccc(Cl)c(Cl)c2)c(C)o1,1,1.1%,-0.5,-5,-6.8,0
COCCCn1c(C)cc(C(=O)COC(=O)C23CC4CC(CC(O)(C4)C2)C3)c1C,18,-0.2%,0.2,0,2.3,7
COC(=O)CN1C(=O)[C@H]2[C@@H](/C=C/c3ccccc3)N3C(=O)CN(Cc4ccc(-c5ccccc5)cc4)C(=O)[C@@]3(C)[C@H]2C1=O,-8,-0.5%,0.6,0,6.8,-29

More results follow.
SMILES,D2 PAM,PINK1 modulator,TRPML1 ag,Six1-Eya2 inh,D2 ag,CtBP-E1A blk
Cc1cccc(NC(=S)N2CCCC(c3nc4ccccc4[nH]3)C2)c1 (configuration not stated),-3,4.7%,0.0,-7,-6.3,-12
CCN1CCN(c2ccc(S(=O)(=O)N3CCOCC3)cc2NC(=O)C2CCC(C(C)(C)C)CC2)CC1 (configuration not stated),0,1.2%,-0.1,-9,1.7,·
CCOC(=O)/C(C#N)=C(/C)c1ccc(OC)cc1,-3,0.5%,0.7,10,-0.5,3
CCCC(=O)c1c(NC)cc(C)oc1=O,-10,-0.4%,-0.3,6,-3.1,3
COc1cccc(/C=N/n2c(SC)nnc2-c2ccccc2)c1OC,-23,0.3%,0.3,0,-3.2,-1
Cc1ccc(C(=O)NNC(=O)c2ccc(-n3cncn3)c([N+](=O)[O-])c2)cc1,1,-0.1%,0.5,8,-6.3,7
CC(C)(C)c1ccc(S(=O)(=O)N2CCc3nc4ccccc4c(C(=O)O)c3C2)cc1,-10,6.4%,3.6,-4,-1.7,·
Cc1nccc(-c2ccc3c(c2)OCO3)n1,2,-0.8%,1.0,-1,-12,3

(further entries)
SMILES,D2 PAM,PINK1 modulator,TRPML1 ag,Six1-Eya2 inh,D2 ag,CtBP-E1A blk
COc1ccc(NC(=O)Nc2cccnc2)cc1,-6,-0.7%,-0.2,1,-0.6,11
Cc1ncc(S(=O)(=O)C(C)(C)C)c(N)n1,-3,0.3%,0.3,14,-1.5,0
CCCn1c(NC(=S)Nc2ccccc2)nc2ccccc21,-12,2.5%,1.2,-2,1.1,1
CCCC(=O)Nc1ccc(-c2cn3cccnc3n2)cc1,7,1.4%,0.2,4,-0.5,-2
Clc1cccc(-c2nnc(-c3ccccc3)o2)c1,-1,-0.6%,-0.7,23,-2.1,6
CNC(=O)COC(=O)c1cc(NC(=O)c2ccco2)c(OC)c(OC)c1,1,-1.6%,-0.5,?,-1.0,?
COc1ccc(NC(=O)C2CCCN(C(=O)NC3CCCCC3)C2)cc1OC (configuration not stated),-12,-0.4%,-1.2,2,-0.7,-9
CCCOc1ccc(C(CC(=O)O)NC(=O)CC(c2ccccc2)c2ccccc2)cc1 (configuration not stated),0,-0.5%,0.2,-4,-5.6,2

More structures follow.
SMILES,D2 PAM,PINK1 modulator,TRPML1 ag,Six1-Eya2 inh,D2 ag,CtBP-E1A blk
C=CCNC(=S)Nc1cccc2ccccc12,-5,·,1.6,5,-0.7,10
CCN(C[C@H]1N[C@@](C)(C(=O)OC)[C@H]2C(=O)N(C)C(=O)[C@@H]12)C(=O)c1ccc(C(C)(C)C)cc1,-4,-1.6%,0.6,4,-0.4,6
C=CCc1cc(Cl)ccc1OCCCNCCO,-15,2.7%,0.3,3,-6.6,·
Nc1ncnc2c1ncn2C1CCCC(CO)O1 (configuration not stated),0,0.9%,1.1,-2,1.7,6
N#Cc1cnn(Cc2ccc(Cl)cc2)c1N,-1,3.2%[38.3 µM],1.0,6,-0.7,5
CN(C)S(=O)(=O)c1ccc(C(=O)OCCn2cnc3c2c(=O)n(C)c(=O)n3C)cc1,-35,2.2%,0.1,-2,1.8,-11
COc1ccc(C)cc1N(C(=O)CNC(=O)c1ccco1)C(C(=O)NC1CCCC1)c1cccnc1 (configuration not stated),-13,-2.0%,-0.3,-4,-4.9,-4
Cc1ccccc1N1CCN(C2CCCN(C(=O)c3ccnn3C)C2)CC1 (configuration not stated),-23,-1.1%,0.6,3,-3.3,-2

New compounds follow.
SMILES,D2 PAM,PINK1 modulator,TRPML1 ag,Six1-Eya2 inh,D2 ag,CtBP-E1A blk
COc1ccccc1/C=C/C(=O)OCC(=O)NCCC1=CCCCC1,-33,0.7%,-1.3,-12,-5.7,2
CC1(C)N=C(N)NC(Nc2ccccc2Cl)=N1,-3,0.3%,-0.1,0,-1.3,1
COc1ccc(-c2cc(C(F)F)n3ncc(C(=O)NCC4CCCO4)c3n2)cc1 (configuration not stated),-23,2.0%,0.2,0,-2.4,-3
Cc1cc(C)c(S(=O)(=O)Nc2ccc(O)c(Sc3ncn[nH]3)c2)c(C)c1,?,1.6%,1.6,-2,9.5,5
NC(=O)CSc1n[nH]c(-c2ccco2)n1,0,2.0%,-0.6,-18,0.0,6
Cc1ccc(NC(=O)COc2cccc(-n3cnnn3)c2)cc1[N+](=O)[O-],-12,2.0%,-0.5,16,-0.2,-2
Cn1nccc1C(=O)NC(=S)Nc1sc2c(c1C#N)CCCCC2,-21,4.2%,1.5,0,-1.3,-9
Cc1ccc(C2=NCCn3c2c2ccc([N+](=O)[O-])cc2[n+]3[O-])cc1,1,-1.0%,0.6,1,?,-8

Remaining list, next part
SMILES,D2 PAM,PINK1 modulator,TRPML1 ag,Six1-Eya2 inh,D2 ag,CtBP-E1A blk
CN1CCN(c2ccc(S(=O)(=O)N3CCCCC3)cc2[N+](=O)[O-])CC1,3,2.8%,0.0,-5,1.5,7
COc1ccc(Cl)cc1N1C(=N)SCC1=O,-7,-1.2%,0.2,4,-2.4,8
CCOc1cc(N(CC)CC)ccc1/C=C(/C#N)c1nc2ccccc2[nH]1,-34,7.6%,25,-29,-6.1,-16
Cc1cccc(CCNC(=O)CN(C)S(=O)(=O)c2cnc[nH]2)c1,5,3.5%,0.0,5,-1.5,8

Bioassay records from PubChem.
